VDR inh = vitamin D3 receptor (human) inhibition; P11473; VDR-SRC2-3 peptide fluorescence polarization, 2 h; Potency, µM, for the others: max response, negative = inhibition, actives largely listed as inhibitors; hit rate 0.93% among 400,000; AID 504847; active = well fitted inhibition curve with a large enough effect; inconclusive = small, poorly fitted or top-dose-only effect, or another doubt; inactive = no such curve, though single readings can be large or run the other way; also: series mostly up to about 120 µM
Target sequence (P11473 whole entry, looked up): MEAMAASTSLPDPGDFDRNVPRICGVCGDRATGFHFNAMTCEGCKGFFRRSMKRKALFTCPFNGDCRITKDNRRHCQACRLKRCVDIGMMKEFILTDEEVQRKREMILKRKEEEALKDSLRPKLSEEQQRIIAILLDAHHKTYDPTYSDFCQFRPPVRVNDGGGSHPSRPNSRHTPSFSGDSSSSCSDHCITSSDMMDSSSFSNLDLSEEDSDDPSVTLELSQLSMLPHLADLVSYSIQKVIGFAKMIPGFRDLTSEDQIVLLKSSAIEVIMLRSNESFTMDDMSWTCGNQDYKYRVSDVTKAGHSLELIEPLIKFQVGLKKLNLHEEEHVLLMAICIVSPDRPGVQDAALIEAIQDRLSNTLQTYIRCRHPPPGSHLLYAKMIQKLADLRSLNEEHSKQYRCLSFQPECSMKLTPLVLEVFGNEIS
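Signal is fluorescence polarization, reporting how far test compounds block the interaction of VDR with the SRC2-3 coregulator peptide after a 2 h room-temperature incubation.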
* marks the source's active call; other numbers are inactive results; ? = inconclusive. % is scaled to controls: 0 for no effect and ±100 for the full control effect; potency is read from the fitted curve at half-maximal effect. These rows are one share of the data; count on the stated rates, not on these rows.

SMILES | VDR inh
CCOC(=O)c1ccc(NC(=S)N(CCN2CCCCCC2)Cc2cccs2)cc1 | 12%
Clc1cncc(Cl)c1NNc1c2ccccc2nc2ccccc12 | -23%
CCCn1c2ccc(F)cc2c2nnc(SCCN3CCOCC3)nc21 | -16%
CCCCN(CC)CCCNC(=O)c1ccc2c(c1)N(Cc1ccc(C)cc1)C(=O)c1ccccc1S2 | 18%
COc1ccccc1CNc1cc(-c2ccccc2CN(C)C)ncn1 | 2%
COc1ccc(NC(=O)N2CCc3c([nH]c4ccc(OC)cc34)C2c2ccc(OC)cc2)cc1 (stereo not drawn) | 12%
Cc1ccccc1NC(=O)c1c(C)nc(SCC(=O)OCc2ccccc2)c(C#N)c1-c1ccc(F)cc1 | -7%
CC(C)CNS(=O)(=O)c1cc(C(=O)OC2CCOC2=O)c(Cl)cc1Cl (stereo not drawn) | -2%
O=C(N/N=C/C(Cl)=C/c1ccccc1)c1ccccc1F | -3%
N#C/C(=C(/O)CCl)c1nc(-c2ccccc2)cs1 | 0%
Cc1ccc(S(=O)(=O)N2CCCCC2)cc1NC(=O)COC(=O)C1(C)CC1(Cl)Cl (stereo not drawn) | -21%
Cc1noc(C)c1COC(=O)c1cc(=O)[nH]c2ccccc12 | 0%
COc1ccc(CNC(=O)COc2ccc(F)cc2)cc1 | 15%
CN1C2CCC1CC(NC(=O)c1ccc([N+](=O)[O-])cc1)C2 (stereo not drawn) | -1%
O=C(CCCn1c(=O)c2cccn2c2cccnc21)NCc1ccccc1Br | 6%

Entries listed so far containing four or more nitrogen atoms (4):
SMILES | VDR inh
Clc1cncc(Cl)c1NNc1c2ccccc2nc2ccccc12 | -23%
CCCn1c2ccc(F)cc2c2nnc(SCCN3CCOCC3)nc21 | -16%
COc1ccccc1CNc1cc(-c2ccccc2CN(C)C)ncn1 | 2%
O=C(CCCn1c(=O)c2cccn2c2cccnc21)NCc1ccccc1Br | 6%

Following part.
SMILES | VDR inh
O=C(Cn1cc(C(F)(F)F)cc(Cl)c1=O)Nc1ccc(N2CCOCC2)cc1 | ?
CN(Cc1c(C(=O)N/N=C/c2cc(F)ccc2F)nnn1-c1nonc1N)C1CCCCC1 | 7%
COc1ccc(C(=O)NC(=S)Nc2ccc(CN3CCOCC3)cc2)cc1Br | -14%
Cc1ccc(S(=O)(=O)c2cc3ccccc3nc2N)cc1 | -14%
O=C(CN1C(=O)c2ccccc2S1(=O)=O)Nc1ncc([N+](=O)[O-])s1 | -17%
Cc1cc(O)c(/C=N/Nc2ccccc2Cl)c(=O)o1 | 3%
CCN1CCN(CCNC(=O)c2ccc3c(c2)N(Cc2ccc(F)cc2)C(=O)c2ccccc2S3=O)CC1 (stereo not drawn) | 5%
O=C(NC1CCCCC1)c1ccc(CSc2nc3cccnc3n2Cc2ccc(F)cc2)cc1 | 8%
Cc1ccc(S(=O)(=O)N2CCN(C(=O)[C@H](Cc3ccccc3)NC(=O)c3ccco3)CC2)cc1 | 14%
O=C(Nc1cccc(C(=O)O)c1)/C(=C\c1ccccc1)NC(=O)c1cccc2ccccc12 | 10%
CCc1ccc(OCC(=O)N(Cc2ccc(C)o2)C2CCS(=O)(=O)C2)cc1 (stereo not drawn) | 16%
CCn1cc(Cl)c(C(=O)N2N=C(c3ccc4ccccc4c3)CC2c2ccccc2O)n1 (stereo not drawn) | -11%
C=CCn1c(O)c(CN2CCCCC2)c(C)c(C#N)c1=O | ?
COCCCNc1nc(NCc2ccc(C)cc2)c2cnn(C)c2n1 | 7%
CN(CCc1cn[nH]c1)C(=O)CC1C(=O)NCCN1Cc1cccc(Oc2ccccc2)c1 (stereo not drawn) | -2%

Some values from the entries so far.
For VDR inh, O=C(NC1CCCCC1)c1ccc(CSc2nc3cccnc3n2Cc2ccc(F)cc2)cc1 has the entry 8%
For VDR inh, CCN1CCN(CCNC(=O)c2ccc3c(c2)N(Cc2ccc(F)cc2)C(=O)c2ccccc2S3=O)CC1 (stereo not drawn) has the entry 5%
For VDR inh, CN(Cc1c(C(=O)N/N=C/c2cc(F)ccc2F)nnn1-c1nonc1N)C1CCCCC1 has the entry 7%
For VDR inh, CCc1ccc(OCC(=O)N(Cc2ccc(C)o2)C2CCS(=O)(=O)C2)cc1 (stereo not drawn) has the entry 16%
For VDR inh, Cc1ccc(S(=O)(=O)N2CCN(C(=O)[C@H](Cc3ccccc3)NC(=O)c3ccco3)CC2)cc1 has the entry 14%

(list continues)
SMILES | VDR inh
S=C(Nc1ccccc1)Nc1nc2ccccc2n1CCOc1ccc(Br)cc1 | -19%
Cc1cc(CNC(=O)c2cc(-c3ccccc3)nc3ccccc23)nn1C | -12%
CC1(NC(=O)CSc2nnc(-c3ccco3)n2Cc2ccccc2)CCS(=O)(=O)C1 (stereo not drawn) | -6%
CCOC(=O)c1ccccc1NC(=O)COC(=O)C1CCCC1 | -13%
CCOC(=O)c1ccc(N2C(=O)c3n[nH]c(C)c3C2c2ccc(O)c(OC)c2)cc1 (stereo not drawn) | ?
Cc1ccc(S(=O)(=O)NNC(=O)Nc2ccc(C)c(C)c2)c(C)c1 | -11%
O=C(c1c(F)cccc1F)N1CCC(O)(c2cccnc2)CC1 | -1%
CN(CC(=O)Nc1cccc(F)c1)CC(=O)N(C)c1c(N)n(Cc2ccccc2)c(=O)[nH]c1=O | -9%
O=c1c2c3c(sc2nc(N2CCNCC2)n1CCc1ccccc1)CCCCC3 | 3%
N#Cc1cccc(NC(=O)Cn2cnc(S(=O)(=O)N3CCc4ccccc43)c2)c1 | -5%
COc1cc(CNc2ccccc2SC)ccc1O | -2%
CCOc1ccc(CCNC(=O)c2ccc(CS(=O)(=O)Cc3ccccc3Cl)o2)cc1OCC | 11%
Cc1ccc(N2C(=O)c3ccccc3C2=O)cc1Cl | -3%
Cc1noc(C)c1CSCC(=O)NC1=NCCS1 | 9%
O=C(COC(=O)COc1cccc(Br)c1)Nc1c(Cl)cccc1Cl | -22%

Molecules above that have a thiophene ring, fused or not (2):
SMILES | VDR inh
CCOC(=O)c1ccc(NC(=S)N(CCN2CCCCCC2)Cc2cccs2)cc1 | 12%
O=c1c2c3c(sc2nc(N2CCNCC2)n1CCc1ccccc1)CCCCC3 | 3%

Back to the main list; the 6 compounds before the break are reprinted first.
SMILES | VDR inh
N#Cc1cccc(NC(=O)Cn2cnc(S(=O)(=O)N3CCc4ccccc43)c2)c1 | -5%
COc1cc(CNc2ccccc2SC)ccc1O | -2%
CCOc1ccc(CCNC(=O)c2ccc(CS(=O)(=O)Cc3ccccc3Cl)o2)cc1OCC | 11%
Cc1ccc(N2C(=O)c3ccccc3C2=O)cc1Cl | -3%
Cc1noc(C)c1CSCC(=O)NC1=NCCS1 | 9%
O=C(COC(=O)COc1cccc(Br)c1)Nc1c(Cl)cccc1Cl | -22%
CN=C(Nc1cc(C)nn1-c1ccccc1)c1ccccc1F | -15%
COc1cccc(NC(=O)Cn2c(=O)n(-c3ccccc3)c(=O)c3ccc(C(=O)NCc4ccc5c(c4)OCO5)cc32)c1 | 4%
Cc1ncc([N+](=O)[O-])n1CCOC(=O)Nc1ccc(Cl)c(Cl)c1 | -1%
COc1ccc(Cn2nnc3c(=O)[nH]c(C4CCN(S(=O)(=O)c5ccc(C)cc5)CC4)nc32)cc1 | 13%
CC(=O)NNC(=S)NC(=O)c1ccccc1 | 5%
O=C(CSc1ccsc1[N+](=O)[O-])Nc1cccc(F)c1 | -9%
CCC(C)Sc1ccc([C@H]2N[C@@](Cc3ccccc3)(C(=O)OC)[C@H]3C(=O)N(CC)C(=O)[C@@H]23)cc1OC (stereo partly drawn) | -5%
CS(=O)(=O)c1ccc(Cl)c(NC(=O)CN2CCCC2c2ccc3c(c2)OCCCO3)c1 (stereo not drawn) | 2%
O=C(NCCN1CCOCC1)Nc1cccc(Cl)c1 | -3%
Cc1ccc(C(=O)COC(=O)CNC(=O)c2ccc(N3C(=O)c4ccccc4C3=O)cc2)cc1C | -5%
Cc1sc(NC(=O)c2sc3nc4c(C)cccc4cc3c2N)c(C#N)c1C | 0%
COc1ccc(CCNC(=O)CSc2nnc3ccccn23)cc1 | -9%
Cc1cc(C(F)(F)F)nc(SCCN2CCCCC2)c1C#N | 13%
CC(=O)c1cccc(S(=O)(=O)N2CCC(C(=O)O)(c3ccccc3)CC2)c1 | -6%
O=C(Nc1ccc(F)cc1F)c1cc(-c2ccco2)on1 | 5%
COCC(C)n1c(SCC(=O)NNC(=O)c2ccccc2)nc2ccccc2c1=O (stereo not drawn) | -7%
COc1cc(/C=N/NC(=O)COc2c(C)cc([N+](=O)[O-])cc2C)ccc1OC(=O)c1ccccc1 | -1%
Nc1nc(-c2cccnc2)nn1C(=O)c1ccccc1Cl | 14%
Cc1cc(N2CCCCC2)ccc1[N+](=O)[O-] | 3%
CC(NC(=O)c1cnc2n(c1=O)CCS2)c1ccccc1 (stereo not drawn) | -23%
CCOc1ccc(NC(=O)Cn2nnc(-c3nc(-c4ccncc4)no3)c2N)cc1 | -3%
Cc1ccc(CN(CC(=O)NCc2ccc3c(c2)OCO3)C(=O)c2csnn2)cc1 | 6%
COc1ccc(/C=C/C(=O)OCC(=O)Nc2c(C)cccc2C)cc1 | -30%
CS(=O)(=O)N(CC(=O)Nc1cccc(Cl)c1)c1ccccc1Cl | 8%
C=CCOc1c(OC)cc(Cl)cc1C1NC(=O)NC(C)=C1C(C)=O (stereo not drawn) | 2%
COc1ccc(C2N(c3ccccc3)C(=O)C2(F)F)cc1OC (stereo not drawn) | -1%
CCC(Sc1nncn1C)C(=O)Nc1nnc(-c2ccccc2Cl)s1 (stereo not drawn) | -9%
CCOc1ccc(NC(=O)CN(C)C(=O)c2cccc(S(=O)(=O)N3CCN(C)CC3)c2)cc1OCC | 3%
COC(=O)C1=C[C@@H](C(=O)OC)C2C3=C(C(=O)[C@]2(CC(C)C)NC(=O)c2ccccc2)[C@H](C)n2c(=O)n(-c4ccccc4)c(=O)n2[C@@H]3C1 (stereo partly drawn) | -9%
Cn1nc(C(=O)OCC(=O)Nc2sccc2C(N)=O)c2ccccc2c1=O | 30%
NC(=O)c1cc([N+](=O)[O-])c(Cl)cc1NCc1ccccn1 | -21%
CC(OC(=O)[C@H](C)NC(=O)c1ccccc1Cl)C(=O)NCc1ccc2c(c1)OCO2 (stereo partly drawn) | -8%
O=C(Nc1cccc(S(=O)(=O)N2CCCCC2)c1)C1CCN(C(=O)c2ccc(Cl)cc2)CC1 | 4%
CCOCC(=O)Nc1cc([N+](=O)[O-])ccc1OC | 18%
Cc1sc2ncnc(NCC(c3ccco3)N(C)C)c2c1C (stereo not drawn) | -20%
CC(C)(NC(=O)NC(CO)c1ccccc1)c1cccc(C(C)(C)NC(=O)NC(CO)c2ccccc2)c1 (stereo not drawn) | -6%
N/C(=N\OC(=O)CCCCCN1C(=O)c2ccccc2C1=O)c1ccccc1 | 7%
COc1ccc(/C=N/NC(=S)NC2CCS(=O)(=O)C2)cc1 (stereo not drawn) | -8%
O=c1oc2ccccc2c2c1ncn2CCN1CCOCC1 | ?
O=c1[nH]c(=O)n(Cc2ccccc2)c2nc(-c3ccc(C(F)(F)F)cc3)n(CCO)c12 | 8%
CCCCOc1ccc(C2C(C(=O)Nc3ccccc3OC)=C(C)Nc3nnnn32)cc1OC (stereo not drawn) | -3%
Cc1ccc(C(=O)Nc2ccccc2C(=O)OCc2cc(=O)n3nc(C(C)C)sc3n2)cc1 | 0%
Cc1cc(=O)oc2c(CN3CCCC3)c(O)ccc12 | 25%
CCCSc1nc2cc(C)c(C)cc2n1CC(O)CO (stereo not drawn) | -13%
CCc1cccc(C)c1NC(=O)C(CC)Sc1nc2ccncc2[nH]1 (stereo not drawn) | 1%
COc1cccc(C(=O)Nc2ccc3c(c2)n(C)c(=O)n3C)c1 | -4%
O=C(CCN1C(=O)C2CC=CCC2C1=O)Nc1ccccc1Cl (stereo not drawn) | -8%
Cc1cc2c(cc1S(=O)(=O)N(CCO)Cc1ccccc1)OCC(=O)N2 | 6%
CN(Cc1cnn(C)c1)C(=O)C1CCC(=O)N(Cc2cccc(C(F)(F)F)c2)C1 (stereo not drawn) | -22%
O=C(O)C1CCCCC1C(=O)Nc1ccc(Cl)cc1 (stereo not drawn) | 14%
CCn1c(C(=O)Nc2ccsc2C(=O)OC)cc2sc(Cl)cc21 | -6%
COc1ccc(-n2c(/C=C3\C(=O)N(C)c4ccccc43)nc3ccccc3c2=O)cc1 | 5%
CCOc1ccccc1NC(=O)CCNS(=O)(=O)c1ccc2[nH]c(=O)oc2c1 | -10%
Cc1cc(C)nc(NS(=O)(=O)c2ccc(NC(=O)CSc3nc4ccccc4[nH]3)cc2)n1 | -12%
O=C(COC(=O)c1ccccc1)Nc1cccc(S(=O)(=O)N2CCOCC2)c1 | 6%
COc1cccc(C2c3cc4c(cc3OC(NNC(N)=O)C2C)OCO4)c1O (stereo not drawn) | -6%
O=S(=O)(NCC1OCCc2ccccc21)c1ccc(S(=O)(=O)N2CCOCC2)cc1 (stereo not drawn) | 9%
COc1ccc(NS(=O)(=O)c2ccc3c(c2)CC(C)N3C(=O)C2CCC2)cc1OC (stereo not drawn) | 21%
S=c1[nH]nc(COc2ccccc2)n1/N=C/c1cccs1 | -14%
Cc1oc2ncn(C)c(=O)c2c1C(=O)NCc1ccccc1 | 11%

The listing continues.
SMILES | VDR inh
COc1ccc(NC(=O)NC2CCCCC2C)cc1 (stereo not drawn) | -2%
O=C(CCc1nc2ccccc2c(=O)[nH]1)OCCOc1ccc(Cl)cc1 | 14%
O=C(CS(=O)(=O)c1ccc(F)cc1)Nc1nccs1 | 8%
O=C(Cn1nc(-c2ccco2)ccc1=O)Nc1ccc(Cl)c(Cl)c1 | 2%
